# Screening results (PubChem)
# HSD17B inhib: qHTS Assay for Inhibitors of HSD17B4, hydroxysteroid (17-beta) dehydrogenase 4 | 3-hydroxyacyl-CoA dehydrogenase type-2 (Homo sapiens), Q99714 | recombinant HSD17B10, NADH fluorescence kinetic; many of its hits are not listed in these tables | Potency, µM (doses to about 57.1 µM), without a hit: at the top dose activity change, negative = inhibition, most hits filed as inhibitors | hit rate 7.6% among 75,000; active = well fitted inhibition curve with a large enough effect; inconclusive = small, poorly fitted or top-dose-only effect; inactive = no such curve, though single readings can be large or run the other way;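 also: the protocol describes HADH2 (HSD17B10) and not the HSD17B4 of the title; nearly all actives have a fitted effect of over 70% in size; most hits overshoot -100% by far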
#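 Activity followed as NADH fluorescence increase (ex 360, em 450 nm) every 30 seconds for 4 min, using final 90 uM beta-hydroxybutyryl CoA and 1 mM NAD+. Recombinant His-tagged enzyme, 20 nM, pH 9.0 Tris buffer, 15 min compound preincubation.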
# Starred values were filed as active, the others as inactive; i = inactive; ? = inconclusive; [ ] = dose if it differs, or a comment. % is scaled to controls: 0 for no effect and ±100 for the full control effect; potency is read from the fitted curve at half-maximal effect. A portion of the library; the hit share may differ from the screen's.
SMILES,HSD17B inhib
O=C(O)C1CCCN1c1ncnc2ccccc12 (stereo unspecified),-8%
O=C(C1CC1)N1CCCN(C(=O)C2CC2)CC1,4%
CC(=O)NCC(=O)NC1(C(=O)NC2CCCC2)CCCCC1,14%
CC1(C)SCC(C(=O)O)N1C=O (stereo unspecified),6%
Cn1c(=O)c(C(=O)COC(=O)c2cc(C(F)(F)F)nc3ccccc23)c(N)n(Cc2ccccc2)c1=O,?
Cc1nc(SCC(=O)Nc2ccc3c(c2)OCCO3)c2oc3ccccc3c2n1,-6%
CCc1ccc(OCc2nnc(SCCN3CCOCC3)n2C)cc1,8%
CN1CCN2c3ncccc3Cc3ccccc3C2C1 (stereo unspecified),0%
C=C(C)COc1ccc(-c2ncncc2Oc2ccc(OC)cc2)c(O)c1,-5%
Cc1cc(=O)oc2cc(OCC(O)CN3CCN(c4ccc(F)cc4)CC3)ccc12 (stereo unspecified),-13%
COc1ccc(OC)c(-n2c(O)cnc2Nc2nc(C)cc(C)n2)c1,2%
CCCC(c1nnnn1Cc1ccco1)N1CCC(C(N)=O)CC1 (stereo unspecified),2%
C[C@]12CC[C@H]3c4ccc(O)cc4CC[C@@H]3[C@H]1CC[C@@H]2OC(=O)CCC1CCCC1,15%[11.4 µM]
O=C(Nc1ccc2oc(-c3ccncc3)nc2c1)c1cccs1,32µM*
O=C(CCCN1Cc2ccccc2C1)c1ccc(F)cc1,?
CC1=C(C(=O)Nc2ccccc2)C(c2ccccn2)n2nc(CCCO)nc2N1 (stereo unspecified),2%
O=C(CN1CCN(CC(=O)Nc2ccc3c(c2)OCO3)CC1)Nc1ccc(F)cc1,-1%
CCOc1ccccc1N(CC(=O)NCc1ccc(OC)cc1)S(C)(=O)=O,11%
Cc1c(C(=O)O)sc2nc3n(c(=O)c12)CCC(C)CC3 (stereo unspecified),0%
O=C(COc1ccc(S(=O)(=O)NC2CCCCC2)cc1Cl)NCC1CCCO1 (stereo unspecified),-1%
Cc1cc(/C=N/n2cnnc2)c(C)n1-c1ccc(Cl)cc1Cl,-6%
O=c1ccnc(S/C=C/c2ccccc2)[nH]1,13%
O=C1C2CC=CCC2C(=O)N1c1ccc(Cc2ccncc2)cc1 (stereo unspecified),-3%
CCOC(=O)c1sc2ncn(CC(=O)NCC3CCCO3)c(=O)c2c1C (stereo unspecified),4%
COC(=O)C1=C(C)NC(C)=C(C(=O)OCCN(C)Cc2ccccc2)[C@@H]1c1cccc([N+](=O)[O-])c1,-7%

# As a working copy, some entries already given.
SMILES,HSD17B inhib
O=C1C2CC=CCC2C(=O)N1c1ccc(Cc2ccncc2)cc1 (stereo unspecified),-3%
CCOC(=O)c1sc2ncn(CC(=O)NCC3CCCO3)c(=O)c2c1C (stereo unspecified),4%
COC(=O)C1=C(C)NC(C)=C(C(=O)OCCN(C)Cc2ccccc2)[C@@H]1c1cccc([N+](=O)[O-])c1,-7%

# The listing continues:
SMILES,HSD17B inhib
CN1C(=O)CSc2ccc(NC(=O)N3CCC(N4CCCCC4)CC3)cc21,9%
C/C(=N\O)C(=O)OC1CC(C)CCC1C(C)C (stereo unspecified),-8%
CCc1nc(SCC(=O)NCc2ccco2)c2c3c(sc2n1)CCCC3,-3%
CC(C)CC(c1nnnn1C1CCCC1)N1CCN(C(=O)c2ccco2)CC1 (stereo unspecified),-3%
COc1ccc(Oc2nc(C)nc3c2oc2ccccc23)cc1,-1%
CC(=O)C(C(C)=O)c1c(Cl)c(O)c(O)c2c(C(=O)c3ccccc3)coc12,7.9µM*
O=C(NC1CCCCC1)NC1(C(=O)N2CCN3CCCC3C2)CCCCC1 (stereo unspecified),-3%
CCCOC(=O)c1ccc(Oc2c(-c3ccc(O)cc3O)n[nH]c2C)cc1,-6%
O=C(NC1CC1)c1ccc(S(=O)(=O)NC2CCCCCC2)cc1,0%
O=C(Nc1ccc(Oc2ccc(NC(=O)C3CCCO3)cc2)cc1)C1CCCO1 (stereo unspecified),1%
Cc1nc(N2CCC(C(N)=O)CC2)c2nnn(Cc3ccccc3)c2n1,0%
O=C(CSc1nc2[nH]ncc2c(=O)n1-c1ccccc1)c1ccc2c(c1)OCCO2,3%
Cc1cccc(OCc2nnc(SCC(=O)OC3CCCCC3)o2)c1,-12%
Cc1c(C(=O)O)oc2ccc(S(=O)(=O)N3CC(C)CC(C)C3)cc12 (stereo unspecified),0%
NS(=O)(=O)c1cc2c(cc1Cl)N[C@@H]([C@@H]1C[C@@H]3C=C[C@H]1C3)NS2(=O)=O,1%
CN1CCN(S(=O)(=O)c2cccc(S(=O)(=O)c3ccc(Cl)cc3)c2)CC1,4%
COCCn1c(=O)[nH]c2cc(C(=O)NC(C)C)ccc2c1=O,32µM*
COc1cccc(/C(O)=C2/C(=O)C(=O)N(CCN(C)C)C2c2ccccn2)c1 (stereo unspecified),-11%
c1cncc(-c2nn[nH]n2)c1,-8%
Cc1cc(C)cc(OCC(=O)Nc2ccccc2C(=O)NCc2ccco2)c1,?
Cc1c(C#N)c2ccccc2n1CC(=O)N1CCCC1,-4%
CCOC(=O)CN(C(=O)Cn1nnc(-c2ccc(C)cc2)n1)C(CC)C(=O)NC1CCCC1 (stereo unspecified),2%
O=C(NCC1CCCO1)c1cc(-c2ccncc2)nc2ccc(S(=O)(=O)N3CCOCC3)cc12 (stereo unspecified),0%
CCCCC(CCC(=O)O)(C(=O)OCC)c1csc(N)n1 (stereo unspecified),-3%
CN(C)c1nc(NCc2ccccc2)nc(Oc2ccc(=O)[nH]n2)n1,10%

# Of the compounds above, these have a thiophene ring, fused or not.
SMILES,HSD17B inhib
O=C(Nc1ccc2oc(-c3ccncc3)nc2c1)c1cccs1,32µM*
Cc1c(C(=O)O)sc2nc3n(c(=O)c12)CCC(C)CC3 (stereo unspecified),0%
CCOC(=O)c1sc2ncn(CC(=O)NCC3CCCO3)c(=O)c2c1C (stereo unspecified),4%
CCc1nc(SCC(=O)NCc2ccco2)c2c3c(sc2n1)CCCC3,-3%

# Shown field by field: 4 of the compounds above
CC(=O)C(C(C)=O)c1c(Cl)c(O)c(O)c2c(C(=O)c3ccccc3)coc12
  HSD17B inhib: 7.9µM*

O=C(NC1CCCCC1)NC1(C(=O)N2CCN3CCCC3C2)CCCCC1 (stereo unspecified)
  HSD17B inhib: -3%

CCCOC(=O)c1ccc(Oc2c(-c3ccc(O)cc3O)n[nH]c2C)cc1
  HSD17B inhib: -6%

O=C(NC1CC1)c1ccc(S(=O)(=O)NC2CCCCCC2)cc1
  HSD17B inhib: 0%

# (cont.)
SMILES,HSD17B inhib
Cn1c(NCCCN2CCOCC2)nc2c1c(=O)n(Cc1ccc(Cl)c(Cl)c1)c(=O)n2C,-11%
Cc1[nH]c2ccc(-c3nnc(SCC(=O)NCc4ccco4)n3Cc3ccccc3)cc2c1C,?
Cn1cccc1Cc1nnc(SCC(=O)NCc2ccccc2)n1-c1ccc(F)cc1,9%
O=C(c1ccco1)N1CCN(c2cccc(Cl)c2)CC1,-4%
COc1ccc(NC(=O)c2cc(CC(C)C)on2)cc1OC,-2%
CCOc1ccccc1C1C(C(N)=O)=C(C)Nc2nc(CCCO)nn21 (stereo unspecified),4%
Cc1noc(C)c1COc1ccc(C(=O)OCC(=O)N2CC3(C)CC2CC(C)(C)C3)cc1 (stereo unspecified),8%
COCCn1c(=O)c(-c2ccccc2)nc2cnc(Oc3ccc(OC)cc3)nc21,32µM*
CCOC(=O)Cc1nnc(NC(=O)CSc2nnc3c4ccccc4n(C)c3n2)s1,-8%
Cc1ccc(C(=O)NC2CCS(=O)(=O)C2)cc1S(=O)(=O)N1CCOCC1 (stereo unspecified),6%
CC(=O)CC(=O)NC(=NC1CCCCC1)Nc1nc(C)cc(C)n1,-14%
CCN(CC)CCN1C(=O)C(=O)/C(=C(/O)c2ccc(C)cc2)C1c1ccncc1 (stereo unspecified),-2%
Cc1noc(C)c1COc1ccc(C(=O)NCc2ccccn2)cc1,-4%
CC1CC(C)CN(c2ncc3c(n2)CC(c2ccccc2)CC3=O)C1 (stereo unspecified),-5%
CCN(CC)CC[n+]1ccc2c(C)c3[nH]c4ccc(O)cc4c3c(C)c2c1,2%[11.4 µM]
COC(=O)c1ccc2ncccc2c1,-29%
CCOc1ccccc1C(=O)NCc1ccc2c(c1)OCO2,-3%
COc1cccc(N2CCN(C(=O)NC3CCCCC3)CC2)c1,2%
Cc1cc(=O)oc2c(OS(C)(=O)=O)c(OS(C)(=O)=O)ccc12,i[11.4 µM]
COc1ccc(NC(C)=O)cc1NC(=O)CSc1nnc(-c2ccccn2)n1C,4%
COc1ccc(N2C(=O)C3C4C=CC(C4)C3C2=O)c(OC)c1 (stereo unspecified),12%
CC1(C)OC(=O)C(=CNc2ccccc2)C(=O)O1,0%
CC(C)Cn1c(=O)c2ccccc2c2ccccc2c1=O,?
S=c1[nH]nc(Cc2ccccc2)n1-c1ccccc1,-14%
Cc1cc(C)c(C#N)c(SCS(=O)c2ccc(C(C)(C)C)cc2)n1 (stereo unspecified),-5%
# Continuation:
SMILES,HSD17B inhib
Cc1ccc(-c2csc3nnc(SCC(=O)NCc4ccc5c(c4)OCO5)n23)cc1,12%
CC(C)CCn1nnnc1C(c1ccccc1F)N1CCC(C(N)=O)CC1 (stereo unspecified),4%
O=C1COc2ccc(C(=O)NCc3ccc4c(c3)OCO4)cc2N1,1%
CC(=O)/C=C(\C)Nc1ccc(-c2cnc(-c3ccccc3)o2)cc1,i
CCOC(=O)CCS(=O)(=O)c1nc(-c2ccccc2)cc(C(F)(F)F)n1,-7%
CC(OCC(O)CN(C)CCOc1ccccc1)c1ccc(Cl)cc1 (stereo unspecified),-1%
CCn1c(CNC(C)=O)nnc1SCC(=O)c1ccc(Br)cc1,-19%
O=C(c1cc(-c2cccs2)on1)N1CCCc2ccccc21,-2%
CC(=O)Nc1ccccc1OCc1nnc(-c2cccs2)o1,-8%
O=C(CCN1CCCCC1)NCNC(=O)CCN1CCCCC1,9%
O=C(NCc1cccs1)N[C@@H](Cc1ccccc1)C(=O)O,1%
Cc1cc(C)n2c(SCc3c(C)noc3C)nnc2n1,11%
O=C(COC(=O)C1CC1)c1c[nH]c2ccccc12,6%
COc1cccc(CN2CCN(c3cccc(C(F)(F)F)c3)CC2)c1OC,-21%
Cc1cc(C)c2c(=O)n(CC(=O)N3CCC(Cc4ccccc4)CC3)sc2n1,13µM*
CCOC(=O)c1cccc(NS(=O)(=O)c2c(C)[nH]c(=O)[nH]c2=O)c1,4%
O=C(Nc1cc(C(F)(F)F)ccc1N1CCOCC1)C1Cc2ccccc2CN1C(=O)c1ccco1 (stereo unspecified),?
Cc1ccc(NC(=O)CSCc2c(C)noc2C)cc1C,-4%
Cc1noc(C)c1COC(=O)COc1cccc2c1OC(C)(C)C2,7%
O=C1c2ccccc2C(=O)N1CCC(=O)N1CCCc2ccccc21,-3%
COC(=O)CC1[C@@]2(C)C[C@@]34OC5(C)OC6(CC[C@@]7(C)C(c8ccoc8)OC(=O)C(C(C)=O)C7[C@]6(O5)C(O)[C@@]3(O)C2O)[C@]14C (stereo partly specified),8%
O=c1[nH]c(CS(=O)(=O)c2ccccc2)nc2ccccc12,-16%
CCOC(=O)c1ccc(Nc2nnc(C(C)(C)C)c(=O)[nH]2)cc1,-6%
CC(C)=CCCC(C)NC(=O)NC1CCCCC1 (stereo unspecified),4%
O=C(c1cccc(F)c1)N1CCC2(CCN(Cc3ccccc3)CC2)CC1,-3%
# Further compounds.
SMILES,HSD17B inhib
O=C1NC(Nc2ccccn2)(C(F)(F)F)C(=O)N1c1ccc(F)cc1 (stereo unspecified),-1%
COCCNc1nc(C(C)(C)C)nc2c1nnn2Cc1ccccc1Cl,6%
Cc1cc(S(=O)(=O)N2CCN(c3ccc(F)cc3)CC2)c(C)s1,-13%
COc1ccc(C(=O)N2CCC[C@@]3(CCN(c4ccncc4)C3)C2)cc1,-2%
CCn1c(C)cc2c(c1=O)C(c1ccncc1)C(C#N)=C(N)O2 (stereo unspecified),3%
CC(C)(C)N1C(=O)c2ccc(C(=O)Nc3nccs3)cc2C1=O,-6%
Cn1c(=O)c2c(nc(SCC(=O)N3CCc4ccccc43)n2Cc2ccccc2)n(C)c1=O,0%
COc1ccc(/C(O)=C2\C(=O)C(=O)N(CC3CCCO3)C2c2cc(OC)ccc2OC)cc1 (stereo unspecified),6%
Cc1cc(NC(=O)c2cc3n(n2)C(C(F)(F)F)CC(c2ccc(Cl)c(Cl)c2)N3)no1 (stereo unspecified),11%
CCCCN(C)CCCNC(=O)c1ccc2c(c1)NC(=O)C(N1CCOCC1)S2 (stereo unspecified),5%
O=C(Nc1ccc(N2CCOCC2)c(Cl)c1)C1CCCCC1,-4%
O=C(c1cccc(C(=O)N2CCN(c3ncccn3)CC2)c1)N1CCN(c2ncccn2)CC1,-5%
FC(F)(F)c1cccnc1N1CCN(c2ncnc3nc[nH]c23)CC1,4%
COC(=O)Cc1csc(Nc2c(C)n(C)n(-c3ccccc3)c2=O)n1,14%
CNC(=O)N(C1=NCC(C)(C)S1)c1ccc(F)c(Cl)c1,-7%
COc1cccc(Oc2ccc(N)cn2)c1,?
CC(C)CC(=O)NC1(C(F)(F)F)C(=O)Nc2c1c(=O)[nH]c(=O)n2Cc1ccco1 (stereo unspecified),?
COC(=O)C(C(=O)OC)C(C(=O)OC)C(C(=O)OC)C(=O)OC,7%
O=C(Nc1ccccc1Cl)c1ccc(S(=O)(=O)N2CCOCC2)cc1,8%
